# UCH37 DUB inh = human UCH37 deubiquitinating enzyme inhibition; purified proteasome/UCH37, Ub-AMC cleavage fluorescence; inhibition, % (test concentration not listed); hit rate 0.33% among 330,000;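 active means mean of two replicates above 20%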;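 further: 0% = compound-free wells with enzyme and 100% = wells lacking proteasome; stock transfer was 100 nL into about 20 µL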
# Target sequence (Q9Y5K5 whole entry, looked up): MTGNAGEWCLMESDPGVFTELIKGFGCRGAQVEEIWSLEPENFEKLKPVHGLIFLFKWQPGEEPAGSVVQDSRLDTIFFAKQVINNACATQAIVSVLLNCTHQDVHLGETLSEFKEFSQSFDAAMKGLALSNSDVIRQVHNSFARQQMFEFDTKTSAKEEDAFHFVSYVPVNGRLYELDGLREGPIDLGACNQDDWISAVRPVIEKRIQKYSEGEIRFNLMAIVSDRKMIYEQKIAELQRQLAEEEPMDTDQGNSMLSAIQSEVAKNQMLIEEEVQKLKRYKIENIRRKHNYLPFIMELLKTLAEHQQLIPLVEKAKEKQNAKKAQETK
#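 System: Proteasome-associated human UCH37 deubiquitinase; Input: 0.15 nM proteasome in added enzyme buffer; Also added: Ub-AMC substrate from 1 µM stock; Incubation: 30 min compound-proteasome preincubation then 25 min substrate reaction, room temperature; Detection: fluorescence, ex 355 nm, em 460 nm; Read-out: % inhibition of Ub-AMC cleavage fluorescence; Benchmarks: no-proteasome and no-compound wells.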
# E coli growth = inhibitors of Escherichia coli growth. OD600, 23 h; active compounds read low. OD600 absorbance (no concentration beside the values). hit rate 0.21% among 330,000. AID 1053175;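 active means OD600 absorbance below the run mean of sample wells minus 3.6 SD, in any replicate, cut at about 0.56 in these data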;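 further: stock transfer was 300 nL into about 60 µL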
# Vif A3G = HIV-1 Vif–A3G interaction blockers – biochemical, TR-FRET, GST-Vif 1-94, biotin-A3G peptide, dose response retest, primary screen (AID 1117319) | TR-FRET GST-Vif / biotin-A3G peptide binding; higher % means a stronger effect; test concentration not given here; strong numbers were not always called active | inhibition, %; hits with a dose series show IC50 in µM | hit rate 0.57% among 260,000;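 active means above the screen mean plus three standard deviations and confirmed in dose response; inconclusive means results disagree or hit not tested in dose response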;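 further: Vif residues 1-94 fused to GST binding biotinylated APOBEC3G peptide 110-148; 0% = full assay without inhibitor and 100% = GST in place of GST-Vif; retest series ran down from 100 µM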
# Bfl-1 A1 inh = inhibitors of the anti-apoptotic protein A1, read as caspase activation. MEF A1-2A-BIM cells, Caspase-Glo 3/7 luminescence, 3 h; percent of clofoctol response, vehicle zero. caspase activation, % (concentration not given with the values). hit rate 0.066% among 330,000. AID 2462;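 active means over half of replicate activation scores above 10%, or exactly half above 10 with the replicate mean above 10; inconclusive means replicate mean below 10 yet half the replicates above 10; inactive means over half of replicates below 10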;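 further: wells of about 30 µL received 50 nL stock; many hits fall short of the cut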
# HNF4A DNA FP = change in binding of human HNF4 alpha to DNA; HNF4a-FITC DNA binding, fluorescence polarization, 1 h; activity change, % at 10 µM; hit rate 0.3% among 360,000; in the data active means activity change above about 30%, passing the limit was not always enough;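 further: controls were the assay level and a saturating level of protein; the project sought stronger binding though the title names inhibitors; some compounds called inactive have numbers as strong as hits; positive values seem to mean higher polarization but the record does not say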
# Target sequence (P41235 whole entry, looked up): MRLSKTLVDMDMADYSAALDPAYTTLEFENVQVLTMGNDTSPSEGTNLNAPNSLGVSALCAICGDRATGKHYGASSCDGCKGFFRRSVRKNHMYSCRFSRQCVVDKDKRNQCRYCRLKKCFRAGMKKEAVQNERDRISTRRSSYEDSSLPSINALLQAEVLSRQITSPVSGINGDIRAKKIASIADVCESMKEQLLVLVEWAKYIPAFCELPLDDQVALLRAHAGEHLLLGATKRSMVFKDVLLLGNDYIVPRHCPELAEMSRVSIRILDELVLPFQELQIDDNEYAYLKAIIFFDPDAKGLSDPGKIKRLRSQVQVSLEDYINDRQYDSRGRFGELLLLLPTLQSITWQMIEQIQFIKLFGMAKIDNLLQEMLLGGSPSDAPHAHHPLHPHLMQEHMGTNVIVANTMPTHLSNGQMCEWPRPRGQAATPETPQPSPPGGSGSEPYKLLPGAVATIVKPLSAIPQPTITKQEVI
# Beta2AR agonist = agonists of human beta-2 adrenergic receptor inducing internalization; Am2.2-beta2AR cells, FAP receptor internalization, flow cytometry; reference of the scale not given here; hit rate 0.43% among 340,000; P07550; response, % (concentration not given with the values);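 active means response above a set limit, near 3 SD of response in nonfluorescent compounds, cut at about 42% in these data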;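 further: stock transfer was 100 nL into about 11 µL; a reference agonist was the positive control; negative values mostly stem from fluorescent compounds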
# LANA-H2B inh = blocks KSHV LANA binding to histone H2A/H2B | cell-free LANA-H2A/H2B peptide, fluorescence polarization | hit rate 0.6% among 320,000 | Q9QR71 | inhibition, % (test concentration not listed); in the data active means inhibition mostly above about 10%, no sharp cut-off; inactive means mostly below about 6.7%;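 further: stock transfer was 7.5 nL into about 10 µL; 0% = median of vehicle wells and 100% = median of positive control wells; one replicate is shown; the record names a cut of 25% in any replicate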
# * = called active by the depositor; ? = inconclusive; . = not tested or not shown; & = joins results of further samples.
SMILES,UCH37 DUB inh,E coli growth,Vif A3G,Bfl-1 A1 inh,HNF4A DNA FP,Beta2AR agonist,LANA-H2B inh
CCCN(CC(=O)Nc1ccccc1C)C(=O)C1CCN(C(=O)Nc2ccccc2)CC1,1.8,0.642,0.0%,0.2,3.4,2.8,-2.5
CCN1CCc2c(sc(N)c2C(N)=O)C1,-20.7,0.762,3.1%,0.0,5.1,9.3,3.5
CC1Sc2ccc(S(=O)(=O)N3CCC(C(N)=O)CC3)cc2NC1=O (stereo not given),2.7,0.718,13.6%,0.3,0.9,2.5,4.0
COC(=O)C1=C(C)N(Cc2ccccc2)C(=NCc2ccco2)N[C@H]1c1cccc(F)c1,4.1,.,.,0.8,-0.7,5.0,0.5
CCN(C[C@H]1N[C@@](C)(C(=O)OC)[C@H]2C(=O)N(C)C(=O)[C@@H]12)C(=O)C1CCCCC1,3.2,0.709,-2.1%,.,-0.7,-9.6,.
CN1CCN(c2nc3c(c(=O)[nH]c(=O)n3C)n2CCSc2nnnn2-c2ccccc2)CC1,0.0,0.662,-6.5%,-0.5,5.1,-1.5,-1.3
COc1cccc(/C=N/n2nnnc2N)c1OCc1ccccc1Cl,.,.,23.9%,0.4,0.1,-5.6,3.3
Oc1ccc2ccccc2c1C=NNc1ccccn1,.,.,4.5%,.,-1.8,-1.5,.
Cc1cccc(NC(=O)COC(=O)c2nn(C)c(=O)c3ccccc23)c1C,2.2,0.711,-7.0%,-1.1,-1.1,-4.2,2.0
CC(C#N)Sc1ccc(S(=O)(=O)N(C)C2CCCCC2)cn1 (stereo not given),-0.3,0.667,4.6%,2.2,-0.7,0.8,-2.2
CCOc1ccc(N(CC(=O)Nc2ccccc2C(=O)NC(C)CC)S(C)(=O)=O)cc1 (stereo not given),3.4,0.691,17.0%,1.0,-2.1,-7.2,3.8
COc1ccc(/C=C/c2nc(-c3ccccc3O)n[nH]2)cc1,-6.5,0.631,0.8%,-6.2,5.8,-7.9,-3.0
CCOc1ccc(C2CC(c3ccccc3C)n3nc(N)nc3N2)cc1 (stereo not given),1.7,0.768,8.0%,0.1,1.1,1.4,32.5*
COc1ccc(CCNc2nc3ccc(C)cc3n3cnnc23)cc1OC,-32.0,0.69,4.8%,-1.2,-2.5,9.2,-1.0
CCS(=O)(=O)NCCc1cc2cc(C)c(C)cc2[nH]c1=O,-4.7,0.804,8.2%,.,-1.3,-1.4,.
CSc1nnc(C2CCN(CC(=O)Nc3ccccc3N3CCOCC3)CC2)n1C,2.7,0.695,.,0.0,-1.2,2.4,2.4
CCn1cnc2cc(NCc3ccncc3)ccc21,3.9,0.634,18.7%,-0.1,-2.2,-1.5,2.3
C=CCn1c(Oc2ccc(C(=O)OC)cc2)nc2c1c(=O)n(C)c(=O)n2C,0.3,0.696,-9.8%,?,-0.7,-2.0,2.8
COCCNc1nc(C)cc(-c2cc(C(=O)NCc3ccccc3)on2)n1,3.4,0.646,-2.9%,0.7,2.6,4.8,17.6
COc1ccc(C(CNC(=O)c2ccc(C)c(S(=O)(=O)Nc3ccccc3OC)c2)N2CCCC2)cc1 (stereo not given),0.2,0.693,.,0.4,2.6,4.4,-0.3
Cc1cccc(C(=O)c2c[nH]cc2-c2ccccc2)c1,2.7,0.727,-1.4%,0.9,-1.1,-11.0,6.1
CCc1nc2ccccc2c(C(=O)OCC(=O)Nc2ccc(S(=O)(=O)N3CCOCC3)cc2)c1C,3.2,0.717,4.4%,-1.2,2.3,16.1,-0.8
N/C(=N\OC(=O)/C=C/c1ccccc1Cl)c1ccccn1,0.8,.,16.7%,-7.5,5.4,-2.8,0.0
COc1ccc(C(=O)N2CCc3c([nH]c4ccccc34)C2C(F)(F)F)cc1 (stereo not given),4.2,0.627,0.7%,0.2,2.8,-3.1,3.4
O=C(CNC(=O)c1ccccc1)OCN1C(=O)c2ccccc2C1=O,1.6,0.694,1.8%,.,5.2,-0.5,.
Cc1n[nH]c(C)c1S(=O)(=O)N1CCN(C(=O)c2ccco2)CC1,-0.6,0.697,-2.1%,0.3,-1.7,-20.5,-3.5
CCn1c(N2CCN(C(=O)c3ccco3)CC2)nc2ccccc21,1.7,0.695,.,0.7,2.9,-3.2,0.5
O=C(NCc1ccccc1Br)c1cccc2c1C(=O)c1ccc(-c3ccc(OC(F)(F)F)cc3)cc1S2(=O)=O,2.3,0.695,.,?,2.4,-1.4,0.7
CC(=O)Nc1ccc(NC(=O)CCOc2cc(C)ccc2C)cc1,2.9,0.705,.,-0.1,0.3,-3.7,2.7
Fc1ccccc1OCCSc1ncnc2nc[nH]c12,1.7,0.706,1.4%,-1.8,-0.9,-2.2,0.6
O=C(Nc1ccccc1N1CCN(C(=O)c2ccc(Cl)cc2)CC1)c1cc2ccccc2o1,0.8,0.715,-7.2%,-0.7,0.8,0.3,2.6
Cc1nc2ccc([N+](=O)[O-])cc2c(=O)n1Cc1cccc(Br)c1,3.9,0.705,.,0.5,-1.5,12.6,1.1
Cc1cc(N2CCN(S(=O)(=O)c3ccc4ccccc4c3)CC2)n2ncnc2n1,2.7,0.699,27.9%,-0.4,-0.1,-8.0,-2.3
Oc1cccc(Nc2nc(-c3ccccc3)nc3ccccc23)c1,-90.0,0.657,-6.1%,1.9,9.1,8.1,5.5
Cc1ccc(NC(=S)N2CCC(c3nc4ccccc4s3)CC2)cc1,2.9,0.695,7.8%,0.4,2.3,3.4,2.6
CCC1CCc2c(sc(NC(=O)c3ccoc3C)c2C(N)=O)C1 (stereo not given),-22.5,0.715,-2.6%,0.0,-1.9,-3.3,-9.4
Cc1c(NC(=O)Cc2ccccc2)cccc1C(=O)NN1C(=O)c2ccccc2C1=O,1.4,0.698,.,-0.2,0.3,1.9,-7.7
COc1ccc(N2CCN(C(=O)CCC(=O)NNc3nc4ccccc4c4nc(C)nn34)CC2)cc1,2.8,0.722,5.0%,-0.6,-2.2,-0.5,8.5
CCOC(=O)N1CCN(C(=O)Cn2nc(-c3ccc(Cl)cc3)ccc2=O)CC1,-2.6,0.667,?,-0.4,-3.8,-16.4,1.9
CS(=O)(=O)c1ccc(C(=O)Nc2ccc(S(=O)(=O)N3CCCCC3)cc2)cc1,-5.2,0.696,-5.1%,-0.1,3.4,11.7,.
NC(N)=Nc1ccc(N=C(N)N)cc1,.,.,?,1.6,-0.9,-1.1,2.2
CC1CCCN(C(=O)CSc2nnc(-c3cccs3)o2)C1 (stereo not given),1.2,0.671,.,0.0,1.7,-0.6,-9.4
CSc1nnc2c(n1)OC=Nc1ccc(Br)cc1-2,10.2,0.645,.,-0.1,4.4,7.2,0.6
O=C(c1ccc(COc2ccc(Cl)cc2)o1)N1CCN(Cc2ccc3c(c2)OCO3)CC1,5.2,0.677,4.7%,-0.1,1.2,7.5,-1.1
CCOc1ccc(CCNC(=O)CCc2nc(-c3ccc(OC)cc3)no2)cc1OCC,3.3,0.761,-0.1%&-5.0%,-0.5,-4.7,-3.8,-1.1

# Complete entries as entered above. Order of values: UCH37 DUB inh, E coli growth, Vif A3G, Bfl-1 A1 inh, HNF4A DNA FP, Beta2AR agonist, LANA-H2B inh
# Results for `Cc1cc(N2CCN(S(=O)(=O)c3ccc4ccccc4c3)CC2)n2ncnc2n1` → 2.7, 0.699, 27.9%, -0.4, -0.1, -8.0, -2.3
# Results for `O=C(c1ccc(COc2ccc(Cl)cc2)o1)N1CCN(Cc2ccc3c(c2)OCO3)CC1` → 5.2, 0.677, 4.7%, -0.1, 1.2, 7.5, -1.1

# Following part:
SMILES,UCH37 DUB inh,E coli growth,Vif A3G,Bfl-1 A1 inh,HNF4A DNA FP,Beta2AR agonist,LANA-H2B inh
CC(C)CC1CCCC12NC(=O)NC2=O (stereo not given),2.8,0.707,18.3%,.,-1.6,-6.3,.
O=C1CCN(CCc2ccccc2)CCN1[C@H](CO)Cc1ccccc1,1.1,.,.,0.8,-2.6,3.1,1.2
CC(=O)Nc1cccc(C(=O)OCC(=O)c2ccc(S(=O)(=O)N3CCCCC3)cc2)c1,.,.,.,0.4,0.5,1.4,-1.7
Cc1cccc(-c2cc3nc4c(c(N5CCOCC5)n3n2)CCCC4)c1,-62.1,0.732,-0.9%,-3.4,-0.1,4.6,-3.7
CC1(C)Cc2nc(NCCN3CCOCC3)c(C#N)cc2CO1,-1.2,0.725,-7.6%,0.5,0.4,1.7,-0.8
CCOC(=O)c1ccc(NC(=O)CCOc2ccc(OC)cc2)cc1,-1.8,0.738,3.5%,-0.7,-1.4,-9.3,-0.4
CCNC(=O)C1CN(S(=O)(=O)c2ccccc2)CCN1S(=O)(=O)c1ccccc1 (stereo not given),-0.2,0.663,1.2%,0.6,2.5,-0.6,1.3
O=C(O)c1ccccc1C(=O)N1CCc2c([nH]c3ccccc23)C1C(F)(F)F (stereo not given),4.3,0.675,-0.7%,0.4,1.9,-4.5,-3.9
O=C(Nc1ccncc1)c1ccc(F)cc1,3.5,0.743,5.3%,0.4,-1.9,-7.5,-0.6
Cc1ccc(CNC(=O)c2oc3ccc(S(=O)(=O)N4CCC5(CC4)OCCO5)cc3c2C)cc1,0.0,0.74,-5.3%,0.7,1.4,18.9,2.0
CC(NC(=O)Nc1ccc(F)cc1F)c1ccncc1 (stereo not given),6.7,0.718,?,0.6,0.0,-0.6,-3.1
Cc1cccc(C(=O)OCC(=O)NCc2ccc3c(c2)OCO3)c1C,.,.,.,-0.7,6.0,4.9,4.3
CC(C)=CCN1CCN(Cc2ccc(C#CC(C)(C)O)s2)CC1CCO (stereo not given),4.8,0.714,?,-1.3,-1.2,4.4,-2.2
CC(=O)C1=C(C)NC(SCC(=O)c2ccccc2)=C(C#N)C1CC(C)C (stereo not given),1.3,0.711,0.2%,0.7,1.0,7.9,4.7
O=C(N/C(=C\c1ccco1)C(=O)N1CCCC(CO)C1)c1ccccc1 (stereo not given),7.1,0.685,.,-0.1,-0.7,6.4,0.3
COc1cc(-c2cc(=O)c3c(C)cc(O)cc3o2)cc(OC)c1OC,.,.,2.2%,.,-1.2,1.5,.
CCOC(=O)c1cc(-c2ccccc2)sc1NC(=O)c1cc(OC)c(OC)c(OC)c1,-154.7,0.7,.,1.0,-3.3,-7.3,-1.4
CCn1cc(C2=NC(c3ccccc3)CO2)c2ccccc21 (stereo not given),0.8,0.75,14.4%,0.1,1.4,-16.9,0.9
CCc1ccc(NC(=S)N2CCNC(=O)C2CC(=O)OC)cc1 (stereo not given),.,.,2.9%,0.3,6.1,-5.3,-3.1
O=C(COc1ccc(S(=O)(=O)N2CCCCC2)cc1)Nc1ccccc1F,1.9,0.695,.,2.2,2.6,-2.2,-9.7
COC(=O)c1ccccc1NC(=O)c1ccc(COc2ccccc2)o1,-1.4,0.712,16.3%,-1.3,2.2,4.6,-2.9
Cc1ccc(C)c(N2CCN(C(=S)Nc3ccc4nc(N5CCN(C)CC5)cc(C)c4c3)CC2)c1,-7.0,0.701,.,1.2,1.4,3.7,0.9
NC1=NCC(O)=C1c1nc2ccccc2[nH]1,6.2,0.685,32.1%,1.0,-3.6,4.1,-5.7
CC1CN(C(=O)c2ccccc2)C(=Nc2cccc(S(=O)(=O)N(C)C)c2)S1 (stereo not given),4.7,0.672,.,0.4,1.7,-8.5,3.3
CN(C)c1nc(N)nc(CSc2n[nH]c(-c3ccccc3)n2)n1,2.0,0.729,3.0%,-0.3,2.8,-8.4,4.7
Cc1nc(C)n(C)c(=O)c1-c1ccccc1,3.5,0.653,-3.2%,-0.4,2.8,7.2,1.5
CCOC(=O)c1c(C)[nH]c(C(=O)COC(=O)C(C)Oc2ccc(Cl)cc2Cl)c1C (stereo not given),2.6,0.646,-0.3%,-0.9,-1.9,7.7,-6.6
CCOc1cc(C2C(C(=O)c3ccc(C)cc3)=C(C(=O)OC)Nc3nnnn32)ccc1O (stereo not given),7.0,0.698,0.6%,1.2,0.2,-2.3,-4.7
